Polio RdRp inh = poliovirus RdRp elongation inhibitors, primary screen, biochemical, fluorescence polarization, total intensity | Genome polyprotein (Poliovirus type 1 (strain Mahoney)), P03300 | poliovirus polymerase elongation; hits give low values | % elongation, % (compound at 16.7 µg/mL) | 150,000 compounds, 0.66% hits | AID 588519, 2011; in the data active means % elongation below about 90%; further: some results filed as inactive read as strong as hits
Mtb MenB inh = M. tuberculosis MenB inhibitors, primary screen, biochemical, absorbance. 1,4-dihydroxy-2-naphthoyl-CoA synthase (Mycobacterium tuberculosis (strain ATCC 25618 / …. MenB enzyme assay, absorbance read-out; some hits fall short of the stated cut. inhibition, %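 (about 12 µg/mL by stock and volumes)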. 100,000 compounds, 0.43% hits;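 active means mean of two replicates above 30%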;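 further: 0% = no compound and 100% = wells with inactive enzyme; the first replicate is given; strong numbers were not always called active; inactives centre near -10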
Target sequence (P9WNP5 whole entry, looked up): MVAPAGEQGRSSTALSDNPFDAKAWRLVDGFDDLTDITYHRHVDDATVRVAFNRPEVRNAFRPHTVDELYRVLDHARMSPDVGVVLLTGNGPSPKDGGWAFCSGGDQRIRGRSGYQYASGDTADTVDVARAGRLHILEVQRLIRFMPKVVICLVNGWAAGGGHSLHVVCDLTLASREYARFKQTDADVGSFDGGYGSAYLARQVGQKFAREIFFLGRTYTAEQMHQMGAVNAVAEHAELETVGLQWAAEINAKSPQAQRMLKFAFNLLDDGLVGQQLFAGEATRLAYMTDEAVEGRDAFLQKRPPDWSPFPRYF
MbtI inh = MbtI salicylate synthase inhibitors, primary screen, biochemical, fluorescence intensity; purified MbtI enzyme, fluorescence intensity read-out; inhibition, %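 (about 17 µg/mL by stock and volumes)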; P9WFX0; AID 493033, 2011; 100,000 compounds, 0.89% hits;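 active means above 50% in both replicates, above 80% if mildly self-fluorescent; inactive means the rest, strongly fluorescent compounds included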;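 further: 0% = mean of negative and 100% = mean of positive controls; one replicate is shown; some compounds called inactive have numbers as strong as hits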
Target sequence (P9WFX0 whole entry, looked up): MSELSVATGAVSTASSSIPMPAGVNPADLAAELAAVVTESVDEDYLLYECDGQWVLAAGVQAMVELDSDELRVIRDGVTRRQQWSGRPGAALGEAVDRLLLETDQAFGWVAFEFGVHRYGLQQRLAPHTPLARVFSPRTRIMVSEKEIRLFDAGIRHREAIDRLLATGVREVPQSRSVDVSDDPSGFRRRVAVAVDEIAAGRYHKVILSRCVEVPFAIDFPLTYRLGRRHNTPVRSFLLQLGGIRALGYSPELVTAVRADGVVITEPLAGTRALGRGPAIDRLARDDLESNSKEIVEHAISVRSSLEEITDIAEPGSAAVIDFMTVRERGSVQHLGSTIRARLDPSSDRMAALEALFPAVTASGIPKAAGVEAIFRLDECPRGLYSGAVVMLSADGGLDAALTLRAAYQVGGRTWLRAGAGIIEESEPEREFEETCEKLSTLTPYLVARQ
Polio RdRp inh intensity = further read-out of Polio RdRp inh, marked with its call; % elongation; measured here: total intensity read-out; formula for this scale not given here;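 total fluorescence in place of polarization; lower means less elongation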
Starred values were filed as active, the others as inactive; . = not tested or not shown. An unsorted share of the library, and some 1.7% of all compounds hit somewhere here.

Compound	Polio RdRp inh	Polio RdRp inh intensity	Mtb MenB inh	MbtI inh
O=C(O)c1ccccc1C(=O)OCc1ccccc1	102	106	5	-3
CC(=O)Oc1ccc2cc(-c3ccc4c(c3)OCCO4)c(=O)oc2c1	101	103	-14	-227
O=C1c2ccccc2C(=O)N1CCCn1ccnc1	101	106	-13	-21
NNC(=O)CCCSc1nc2ccccc2s1	106	113	-8	.
Cn1cnnc1Sc1ccc(Cl)cc1NC(=O)c1cc2ccccc2o1	103	107	-17	46
CCN(CC)C(=O)C1C(=O)N(C)C2(C)CC1c1ccccc1O2 (configuration not stated)	100	102	8	-2
CCN1CCN(CC(=O)NC23CC4CC(CC(C4)C2)C3)CC1	103	101	-28	-8
CC(=O)N1CCc2c(sc3c2c(=O)n(Cc2ccccc2)c(=O)n3Cc2cccc(C)c2)C1	103	105	-5	-7
O=C(O)CCC(=O)Nc1sccc1C(=O)Nc1ccccc1	102	105	-1	8
COC(=O)C1=C(C)Nc2ccccc2S1	107	106	-11	58*
CCC(Sc1nc(=O)cc(N)n1CCc1ccccc1)C(=O)Nc1nc(-c2ccccc2)cs1 (configuration not stated)	103	109	-32	.
Cc1ccccc1OCc1nnc(SCC(=O)N(C)C)n1-c1ccccc1	108	100	-57	-4
Nc1ncnc2c1c1nc3ccccc3nc1n2CCc1ccccc1	102	107	-47	-9
Cc1ccc2c3c(ccc2n1)NC1=C(C(=O)CCC1)C3c1ccccc1C (configuration not stated)	106	111	-11	.
CC1(C)C=C(O)C(C2(O)C(=O)c3ccccc3C2=O)C(=O)C1 (configuration not stated)	19*	36*	-28	.
O=C(CC1c2ccccc2CCN1S(=O)(=O)c1ccc(F)cc1)OCC(=O)N1CCCCC1 (configuration not stated)	102	95	-45	-17
O=c1oc2ccccc2c(O)c1Sc1ccc(Cl)cc1	101	98	.	-25
Nc1ncnc2c1ncn2C1CCC(CO)C(O)C1 (configuration not stated)	103	105	0	-10
CN(C(=O)NC(=O)Nc1ccc(Cl)cc1Cl)S(C)(=O)=O	102	99	1	2
COc1cccc(C2C(C(=O)/C=C/c3ccco3)=C(O)C(=O)N2CCN2CCOCC2)c1 (configuration not stated)	101	103	-92	6
CN(C)C(Cc1ccccc1)C(=O)C(C)(C)C (configuration not stated)	104	104	1	-3
O=C(NN1C(=O)/C(=C\c2cccnc2)SC1=S)c1ccccc1	101	96	-15	-1
CCc1ccc(S(=O)(=O)NCc2cn3ccsc3n2)cc1	98	101	-20	5
Oc1ccc(CNc2ccc(F)cc2)c2cccnc12	144	154	-22	.
C#CCOc1ccc(OC)cc1/C=C(/C#N)c1ccc(C#N)cc1	101	103	-19	0
Cc1nc2ccccc2c(=O)[nH]1	96	102	14	-1
O=C(Nc1ccc(N2CCOCC2)cc1)C12CC3CC(CC(C3)C1)C2	105	101	-12	-3
C(=NC1CCCCCCCCCCC1)c1ccco1	104	103	-12	-7
NC(=O)c1nsc(C(=O)N(CC(=O)NCc2ccc3c(c2)OCO3)C2CCCCC2)c1N	100	102	-12	-24
CCC(C)NC(=O)c1ccc(Cl)cc1 (configuration not stated)	97	103	-5	.

Sorted by formula weight (rising): part of the list above
Compound	Polio RdRp inh	Polio RdRp inh intensity	Mtb MenB inh	MbtI inh
CCN1CCN(CC(=O)NC23CC4CC(CC(C4)C2)C3)CC1	103	101	-28	-8
COc1cccc(C2C(C(=O)/C=C/c3ccco3)=C(O)C(=O)N2CCN2CCOCC2)c1 (configuration not stated)	101	103	-92	6
O=C(CC1c2ccccc2CCN1S(=O)(=O)c1ccc(F)cc1)OCC(=O)N1CCCCC1 (configuration not stated)	102	95	-45	-17

Later entries
Compound	Polio RdRp inh	Polio RdRp inh intensity	Mtb MenB inh	MbtI inh
CC(Oc1ccccc1)C(=O)OCc1nnc(-c2ccc(F)cc2)o1 (configuration not stated)	.	.	-10	-10
CC1=C(C(=O)Nc2ccc(C)cc2)C2(CCN(C(C)C)CC2)OC1=O	102	98	-33	8
COc1ccc2oc(=O)cc(CN(Cc3cccs3)C(C)C)c2c1	105	98	-45	0
S=C(NCCN1CCOCC1)NNc1ccc2ccccc2c1	99	91	-40	34
O=C1C2CC=CCC2C(=O)N1Cc1cc(=O)n2ccsc2n1 (configuration not stated)	101	108	-8	20
O=C(Nc1ccc(F)cc1)N1CCN2C(=O)c3ccccc3C12c1ccccc1 (configuration not stated)	104	102	-2	-1
FC(F)(F)c1cc(-c2ccc3c(c2)OCO3)nc(=S)[nH]1	102	101	34*	-143
Cc1[nH]n2c(=O)cc(-c3ccccc3)nc2c1-c1ccccc1	101	103	-1	-15
C/C(=N\NC(=O)C(F)(F)F)c1ccccc1O	103	102	34*	1
CC1=C(OC(=O)c2ccccc2)C(C)(C)C(c2ccccc2)OC1=O (configuration not stated)	99	105	-8	.
NC(=S)c1ccsc1	101	101	3	22
O=C(Nc1cccc(C(F)(F)F)c1)c1cccnc1N1CCCC1	100	102	-15	96
Cn1c(=N)n(CC(=O)c2ccc(-c3ccccc3)cc2)c2ccccc21	105	96	-50	-27
CCSc1nc2ccccc2c(=O)n1-c1cccc(OC)c1	98	93	-4	-7
Cc1ccc(C)n1CCc1ccccc1	102	108	-2	-2
Cc1nnc(C)n1/N=C/c1ccccn1	101	103	3	.
COc1ccc(S(=O)(=O)NCc2ccc(C(=O)N3CC(C)CC(C)C3)cc2)cc1 (configuration not stated)	103	97	0	-8
Cc1ccccc1OCc1nnc(SCC(=O)N(Cc2ccccc2)C(C)(C)C)o1	98	100	-40	2
CNC(=O)c1ccc(Cn2c(SCc3ccc(C)cc3)nc3ccncc32)cc1	105	111	-14	-10
COc1ccc(CN2C(=O)c3cccnc3C2=O)cc1S(=O)(=O)NC1CC1	105	102	-20	-6
O=C(c1ccccc1)N1CCN(C(=O)c2ccc(OC(F)(F)F)cc2)CC1	105	100	-1	-6
CCOc1ccc(C=Nc2ccccc2)cc1	104	108	-8	.
N#Cc1ccccc1OCC(=O)c1cccs1	103	101	-184	13
O=C(Nc1cccnc1)c1cccc(S(=O)(=O)NCc2cccnc2)c1	105	108	-15	-3
COc1ccc(OCCCN2C(=O)NC(C)(C)C2=O)cc1	101	102	0	-16
O=C(O)C(=Cc1ccc(-c2cccc(Cl)c2)o1)C(=O)O	99	103	3	72
CCN(Cc1ccccc1)C(=O)c1ccccc1-c1nc(-c2cccc(C)c2)no1	104	106	-23	-16
CC(NC(=S)NC(=O)c1cccs1)C12CC3CC(CC(C3)C1)C2 (configuration not stated)	99	107	-26	.
CCCCn1nnnc1COC(=O)/C(C#N)=C/c1ccc(N(C)C)cc1	46	246	-63	-4
NC(=O)COC(=O)c1ccc(Oc2ccccc2)cc1	103	101	-7	5

Other results.
Compound	Polio RdRp inh	Polio RdRp inh intensity	Mtb MenB inh	MbtI inh
COc1ccc(C(=O)C[n+]2cc(-c3ccc(OC)cc3)n3c2CCCCC3)cc1	99	100	-4	10
Cc1cc(C)c2oc(-c3cc(NC(=O)c4ccc(Br)o4)ccc3O)nc2c1	102	99	-34	6
CC(C)(C)c1ccc(NC(=S)NCc2cccnc2)cc1	100	88	-17	-5
Cc1sc(NC(=O)c2ccco2)c(C(c2ccccc2)N2CCCC2)c1C (configuration not stated)	103	104	-3	-3
Nn1c(SCc2ccccc2)n[nH]c1=S	96	94	-5	70*
N#Cc1c(N)n(CCNC(=O)c2ccc(Cl)cc2)c2nc3ccccc3nc12	115	113	-44	88
Cc1nc2ccccc2c(=O)n1CC(=O)N(C1CCCCC1)C1CCCCC1	105	102	-3	-4
CN1CCN(NC(=O)COc2ccc(-c3ccccc3)cc2)CC1	101	100	-6	-2
Cc1ccccc1NC(=O)CSC1=C(C#N)C(c2ccccc2C)C2=C(CCCC2=O)N1 (configuration not stated)	99	98	-35	32
CCN(CC)c1nn2nnnc2c2ccccc12	101	101	-6	5
Cn1c(=O)c2c(SCC(=O)Nc3nccs3)ccnc2n(C)c1=O	103	104	-9	-15
CCOc1cccc2cc(C(=O)Nc3nccs3)c(=Nc3cccc(C(F)(F)F)c3)oc12	105	100	12	9
CN(C(=O)CN1CCC(NC(=O)c2ccccc2Br)CC1)C1CCCCC1	103	102	15	-2
Clc1ccccc1COc1cccc(CNCc2cccnc2)c1	100	95	-30	-2
Cc1c(C(=O)N2CCOCC2)sc(NC(=O)c2ccc3c(c2)OCO3)c1C#N	101	100	-12	-24
O=C1/C(=C/c2ccncc2)CCC/C1=C\c1ccncc1	98	100	-19	26
CCOC(=O)c1nn(-c2ccc(OC)cc2)c(C(=O)OCC)c1NC(=O)c1c(Br)cnn1C	106	100	-17	0
c1ccc(SCc2nnc(-c3ccccc3)o2)cc1	104	103	-21	-5
Fc1ccccc1C1Nc2ccc3ccccc3c2C2C=CCC21 (configuration not stated)	102	122	-31	.
CCN(CCCn1c(=S)[nH]c2cc3c(cc2c1=O)OCO3)c1cccc(C)c1	103	105	-17	-11
CCC(SC1=Nc2ccccc2C2=NC(CC(C)C)C(=O)N12)C(=O)Nc1ccc2c(c1)OCO2 (configuration not stated)	101	103	11	8
COc1cc(/C=C/C(=O)OCC(=O)NC2CCCCC2)ccc1O	104	109	-16	-17
Cc1cc(Cl)nc(-c2ccccc2)n1	100	101	-7	-13
O=C(Nc1ccccc1C(=O)N1CCCCC1)C1CCCCC1	102	101	-26	-11
O=S(=O)(N=Nc1c(O)[nH]c2ccccc12)c1ccccc1	103	105	-32	16
N#CCc1nc(-c2ccc(Br)cc2)cs1	101	99	.	2
C#CC1(O)CC[C@H]2[C@@H]3CCC4=CCCC[C@@H]4[C@H]3CC[C@@]21C (some centres not stated)	98	102	-2	-7
CCCN(CCC)C(=O)CSc1ncccc1C(=O)Oc1ccccc1Cl	103	99	-8	8
CC(C)c1ccc(-n2ccnc2SCC(=O)NC2CCC(O)CC2)cc1 (configuration not stated)	102	109	-3	-4
Cn1ccnc1SCC1CCCCO1 (configuration not stated)	101	107	5	-15

Continuation:
Compound	Polio RdRp inh	Polio RdRp inh intensity	Mtb MenB inh	MbtI inh
O=C(Nc1ccccn1)c1ccccc1Cl	100	104	-35	-4
O=C(c1ccco1)N1CCN(Cc2cccnc2)CC1	104	98	0	-2
COC(=O)/C(C#N)=C(\NCc1ccc(Cl)cc1Cl)SC	107	104	1	21
Cc1ccc(CNC(=O)C2c3ccccc3Oc3ccccc32)n1C	102	105	10	-2
O=S(=O)(c1ccccc1)N1CCN(C2CCCCCCC2)CC1	101	101	-18	-12
CC(C)C(c1nnnn1Cc1ccccc1)N1CCC(C(N)=O)CC1 (configuration not stated)	102	103	4	-6
CC(=O)NC(C)C1CC2CCC1C2 (configuration not stated)	100	97	-5	-14
CCOc1ccc(OCC)c(CC(C#N)C(=O)OC)c1 (configuration not stated)	99	100	-43	-35
c1ccc(-n2c(SCCN3CCOCC3)nnc2-c2ccncc2)cc1	100	101	-8	0
CCn1c(C)nc2cc(Cl)ccc21	102	102	-16	0
N#Cc1ccc(C=Nc2cccc(C#N)c2)cc1	103	108	-16	.
COc1cc(C(=O)Oc2ccc3c(c2)OCO3)ccc1OCc1c(C)noc1C	103	103	-6	-16

An excerpt from above in order of count of non-hydrogen atoms, largest number first.
Compound	Polio RdRp inh	Polio RdRp inh intensity	Mtb MenB inh	MbtI inh
CCC(SC1=Nc2ccccc2C2=NC(CC(C)C)C(=O)N12)C(=O)Nc1ccc2c(c1)OCO2 (configuration not stated)	101	103	11	8
COc1cc(C(=O)Oc2ccc3c(c2)OCO3)ccc1OCc1c(C)noc1C	103	103	-6	-16
CCCN(CCC)C(=O)CSc1ncccc1C(=O)Oc1ccccc1Cl	103	99	-8	8
CC(C)c1ccc(-n2ccnc2SCC(=O)NC2CCC(O)CC2)cc1 (configuration not stated)	102	109	-3	-4
CC(C)C(c1nnnn1Cc1ccccc1)N1CCC(C(N)=O)CC1 (configuration not stated)	102	103	4	-6
COc1cc(/C=C/C(=O)OCC(=O)NC2CCCCC2)ccc1O	104	109	-16	-17
O=S(=O)(c1ccccc1)N1CCN(C2CCCCCCC2)CC1	101	101	-18	-12
C#CC1(O)CC[C@H]2[C@@H]3CCC4=CCCC[C@@H]4[C@H]3CC[C@@]21C (some centres not stated)	98	102	-2	-7
O=C(c1ccco1)N1CCN(Cc2cccnc2)CC1	104	98	0	-2
N#Cc1ccc(C=Nc2cccc(C#N)c2)cc1	103	108	-16	.
O=C(Nc1ccccn1)c1ccccc1Cl	100	104	-35	-4
N#CCc1nc(-c2ccc(Br)cc2)cs1	101	99	.	2
Cn1ccnc1SCC1CCCCO1 (configuration not stated)	101	107	5	-15
CC(=O)NC(C)C1CC2CCC1C2 (configuration not stated)	100	97	-5	-14

From PubChem
